FPR binding: small-molecule ligands of human FPR – U937-FPR cells, fMLFK-FITC, flow cytometry, primary screen (AID 362); inhibition, %; U937-FPR cells, fMLFK-FITC displacement, flow cytometry; stronger effect = higher value; test concentration not given here; most inactive calls were filed without a number and no value below 0 was filed; hit rate 1% among 4,300;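 active = inhibition of labelled peptide binding to the formyl peptide receptor of at least 65%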;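 also: plate controls were buffer control wells for no effect and unlabeled fMLFF blocking peptide for full effect; higher means less cell fluorescence so more probe displaced; part of the set was picked by virtual screening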
* hit, by the source's call; i = inactive. These rows are one share of the data; rates above refer to the full screens.

cpd	Compound	FPR binding
1	COc1ccc(C2C3=C(CC(C)(C)CC3=O)OC3=C2C(=O)CC(C)(C)C3)cc1Cn1nnc2ccccc21	17
2	CCOC(=O)CCN(Cc1ccc(OC)c(OC)c1)S(=O)(=O)c1cccc(C(F)(F)F)c1	i
3	Cc1ccc(Oc2c(C(F)(F)F)oc3c(CN4CCCC4)c(O)ccc3c2=O)cc1	8
4	COC(=O)C1C(=O)C2=C(CC1C)NC(C)=C(C(=O)OC1CCCCC1)C2c1ccc2c(c1)OCO2 (stereo not given)	i
5	CC1CC(C)CN(C(C(=O)NC2CCCCC2)c2cc3c(cc2[N+](=O)[O-])OCO3)C1 (stereo not given)	2
6	O=c1oc2cc(O)ccc2c2c1CCCC2	i
7	CCOc1ccccc1C1C2=C(CC(C)(C)CC2=O)Nc2ncnn21 (stereo not given)	i
8	O=c1c(Oc2ccccc2Br)c(C(F)(F)F)oc2c(CN3CCCCC3)c(O)ccc12	i
9	CCCOc1ccc(C(O)(CCC)CCN2CCCCC2)cc1 (stereo not given)	i
10	CCCOC(=O)C1=C(C)NC2=C(C(=O)C(C(=O)OC)C(C)C2)C1c1ccc(C(F)(F)F)cc1 (stereo not given)	i
11	CC1CCCN(C(=O)c2ccc(S(=O)(=O)c3ccc(F)cc3)c([N+](=O)[O-])c2)C1 (stereo not given)	1
12	CCOC(=O)C1=C(N)OC2=C(C(=O)CC(C)(C)C2)C1c1ccccc1OCC (stereo not given)	i
13	CC(=O)N1CCCc2cc(S(=O)(=O)NC(C(=O)NC3CCCC3)C(C)C)ccc21 (stereo not given)	i
14	CC(C)COc1ccc2c(c1)c1c3n2CCNC3CCC1 (stereo not given)	i
15	O=c1cc(O)c2sc3nc(C45CC6CC(CC(C6)C4)C5)cc(C(F)(F)F)c3c2[nH]1	i

The final 6 compounds of the part before open the next one:
cpd	Compound	FPR binding
10	CCCOC(=O)C1=C(C)NC2=C(C(=O)C(C(=O)OC)C(C)C2)C1c1ccc(C(F)(F)F)cc1 (stereo not given)	i
11	CC1CCCN(C(=O)c2ccc(S(=O)(=O)c3ccc(F)cc3)c([N+](=O)[O-])c2)C1 (stereo not given)	1
12	CCOC(=O)C1=C(N)OC2=C(C(=O)CC(C)(C)C2)C1c1ccccc1OCC (stereo not given)	i
13	CC(=O)N1CCCc2cc(S(=O)(=O)NC(C(=O)NC3CCCC3)C(C)C)ccc21 (stereo not given)	i
14	CC(C)COc1ccc2c(c1)c1c3n2CCNC3CCC1 (stereo not given)	i
15	O=c1cc(O)c2sc3nc(C45CC6CC(CC(C6)C4)C5)cc(C(F)(F)F)c3c2[nH]1	i
16	CCOC(=O)C1=C(C)NC2=C(C(=O)C(C(=O)OC)C(C)C2)C1c1ccc(C(F)(F)F)cc1 (stereo not given)	3
17	COc1ccc(-c2cc(C(F)(F)F)n3nc(C(=O)N(C)CCC#N)cc3n2)cc1OC	i
18	O=C1C2C3C=CC(C2C(=O)N1CCCO)C1C2C(=O)N(CCCO)C(=O)C2C31 (stereo not given)	i
19	N#Cc1c2c(c(N3CCOCC3)n3c1nc1ccccc13)CCC2	i
20	COC(=O)C1=C(N)OC2=C(C(=O)CC(C)(C)C2)C1c1ccc(OC)cc1 (stereo not given)	21
21	CC1=C(C(=O)OCCC(C)C)C(c2ccc3c(c2)OCO3)NC(=O)N1 (stereo not given)	20
22	CCOC(=O)C1=C(C)NC2=C(C(=O)C(C(=O)OC)C(C)C2)C1c1ccc(C)cc1 (stereo not given)	20

Three entries already listed, arranged by their value in FPR binding, falling:
No.	canonical_smiles	FPR binding
20	COC(=O)C1=C(N)OC2=C(C(=O)CC(C)(C)C2)C1c1ccc(OC)cc1 (stereo not given)	21
21	CC1=C(C(=O)OCCC(C)C)C(c2ccc3c(c2)OCO3)NC(=O)N1 (stereo not given)	20
16	CCOC(=O)C1=C(C)NC2=C(C(=O)C(C(=O)OC)C(C)C2)C1c1ccc(C(F)(F)F)cc1 (stereo not given)	3

Bioassay records: PubChem BioAssay, NMMLSC
